NS1 inh: inhibitors of influenza NS1 protein function | Potency, µM (titrated, usually from 46.1 µM), without a hit: at the highest dose activity, positive = more growth | 270,000 compounds, 0.4% hits | AID 2326 | S. cerevisiae slowed by influenza A NS1, growth recovery by OD600; active means well fitted rising curve with a large enough effect; inconclusive means small, poorly fitted or top-dose-only effect; inactive means no such curve, though single readings can be large or run the other way; further: nearly all actives have a fitted effect of over 50% in size
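S. cerevisiae expressing influenza A NS1, grown in glucose, washed, then diluted 1:100 into pH 6.0 -URA galactose medium with 23 nl compound. Growth recovery read as OD600; NS1-free strain serves as control.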
Marburg entry inh: blocks Marburg virus binding to or entry into cells. Marburg virus pseudotyped entry inhibition, cell reporter; control for the full effect not named in the record; about a third of the inactives were read at about 46 µM. 300,000 compounds, 1.8% hits. AID 540276. Potency, µM (highest dose often 37.8 µM), without a hit: at the highest dose activity change, negative = inhibition, hits mostly inhibitors; active = well fitted inhibition curve with a large enough effect; inconclusive = small, poorly fitted or top-dose-only effect, or effect the other way; inactive = flat fitted curve, though single readings scatter; tested in HEK293 cells; about a fifth of its hits are not listed in these tables; further: on the % scale 0 is the no-effect control and ±100 the full control effect; luciferase read-out
2A StopGo: lowers the luciferase signal of an FMDV 2A StopGo reporter; human cells with a luciferase reporter of 2A StopGo recoding; control for the full effect not named in the record; Potency, µM (highest dose often 57.9 µM), without a hit: at the highest dose signal change, negative = less light; 410,000 compounds, 1.2% hits; AID 1159524; active = well fitted falling curve with a large enough effect; inconclusive = small, poorly fitted or top-dose-only effect; inactive = no such curve, though single readings can be large or run the other way; tested in HEK293T cells; further: on the % scale 0 is the no-effect control and ±100 the full control effect; nearly all actives have a fitted effect of over 45% in size; luciferase light after 4 h
RE007 growth inh: less growth of the S. pombe RE007 Vpr strain; S. pombe RE007 Vpr strain, BacTiter-Glo ATP luminescence, 24 h; control for the full effect not named in the record; Potency, µM (top dose mostly 92.2 µM), for inactives: at the highest dose activity change, negative = less growth; 360,000 compounds, 0.21% hits; active = well fitted falling curve with a large enough effect; inconclusive = small, poorly fitted or top-dose-only effect; inactive = no such curve, though single readings can be large or run the other way;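 further: on the % scale 0 is the no-effect control and ±100 the full control effect; nearly all actives have a fitted effect of over 50% in size; the assay follows cell death caused by Vpr and the record does not say whether a fall means rescue or toxicity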
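Fission yeast RE007 carrying one integrated HIV-1 vpr copy, seeded at OD 0.01 in PMG+AL medium with 23 nL pinned compound. Grown 24 h at 30 degrees; viability read by BacTiter-Glo luminescence after 5 min.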
Cruzain inh Det: cruzain (T. cruzi) inhibition with detergent. P25779. purified cruzain, Z-FR-AMC fluorescence, 0.01% Triton. Potency, µM, without a hit: max response, negative = inhibition, actives largely listed as inhibitors. 200,000 compounds, 0.43% hits. AID 1478;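 further: plate controls were neutral wells for no effect and buffer without enzyme for full effect; nearly all actives have a fitted effect of over 40% in size; top concentration of the series not given in the record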
Target sequence (P25779 123-467 limits assumed): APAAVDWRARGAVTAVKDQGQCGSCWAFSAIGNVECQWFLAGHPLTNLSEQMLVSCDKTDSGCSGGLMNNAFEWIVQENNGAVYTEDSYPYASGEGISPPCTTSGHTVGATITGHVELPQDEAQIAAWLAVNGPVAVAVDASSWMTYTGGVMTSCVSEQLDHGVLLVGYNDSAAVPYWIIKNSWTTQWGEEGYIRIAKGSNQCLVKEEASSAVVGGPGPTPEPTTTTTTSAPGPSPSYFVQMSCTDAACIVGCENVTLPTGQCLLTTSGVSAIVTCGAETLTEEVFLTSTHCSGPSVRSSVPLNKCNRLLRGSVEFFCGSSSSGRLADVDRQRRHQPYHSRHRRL
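Detergent-containing run (0.01% Triton X-100) in acetate buffer pH 5.5 with 5 mM DTT: enzyme at 1.5 nM final, 15 min compound preincubation at room temperature, then 2 uM Z-FR-AMC substrate. Activity taken as 60 s fluorescence increase at 360/450 nm.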
SARS PLpro yeast: SARS-CoV PLP inhibition in yeast; Potency, µM (top dose mostly 32.9 µM), for the others: at the top dose activity, positive = growth rescue; 330,000 compounds, 0.19% hits; S. cerevisiae expressing SARS-CoV PLpro, growth rescue; control for the full effect not named in the record; active means well fitted rising curve with a large enough effect; inconclusive means small, poorly fitted or top-dose-only effect; inactive means no such curve, though single readings can be large or run the other way; further: 0% is about no effect; nearly all actives have a fitted effect of over 55% in size; growth read by luminescence after 48 h
LASV entry inh: Lassa virus entry inhibition. Lassa virus pseudotype entry inhibition, cell reporter; control for the full effect not named in the record. Potency, µM (titrated, usually from 37.9 µM), inactives show top-dose activity change, negative = inhibition, actives largely listed as inhibitors. 300,000 compounds, 1.2% hits; active means well fitted inhibition curve with a large enough effect; inconclusive means small, poorly fitted or top-dose-only effect, or effect the other way; inactive means flat fitted curve, though single readings scatter; tested in HEK293 cells; further: on the % scale 0 is the no-effect control and ±100 the full control effect; nearly all actives have a fitted effect of over 50% in size; luciferase read-out
Cruzain noTriton: cruzain (T. cruzi) inhibition without detergent | P25779 | purified cruzain, Z-FR-AMC fluorescence, no detergent | Potency, µM, for the others: max response, negative = inhibition, usual class: inhibitors | 200,000 compounds, 2.3% hits;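 further: plate controls were enzyme without inhibitor for no effect and buffer without enzyme for full effect; nearly all actives have a fitted effect of over 40% in size; top concentration of the series not given in the record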
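Purified cruzain at 1.5 nM, pre-incubated 15 min with compound at room temperature in 100 mM sodium acetate pH 5.5, 5 mM DTT, 0.00005% Triton X-100. Reaction started with 2 uM Z-FR-AMC; AMC fluorescence increase over 60 s gives rate.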
* = called active by the depositor; ? = inconclusive; · = no result given; & = joins results of further samples; [ ] = dose if it differs, or a comment. Unless noted, the call rests on the fitted dose curve; in most records, active means well fitted curve in the direction sought with a large enough effect; inconclusive means small, poorly fitted or top-dose-only effect, or another doubt; inactive means no such curve, though single readings can be large; an effect the other way counts as inactive or inconclusive. Potency means the concentration at half of the fitted maximal effect. This is a random part of the collection; any-hit rate near 4.6%.

SMILES	NS1 inh	Marburg entry inh	2A StopGo	RE007 growth inh	Cruzain inh Det	SARS PLpro yeast	LASV entry inh	Cruzain noTriton
CCOc1ccc(-c2nc(C)sc2CC(=O)O)cc1	4%	1%	-14%	-20%	-0.8%	10%	10%	-5%
CCOc1ccc(C(=O)Nc2c(C(=O)c3ccc(OC)cc3)oc3ccccc23)cc1	·	-15%[46.1 µM]	-1%	·	-0.3%	·	8%[46.1 µM]	-6%
CCCc1cc(N2CCN(c3ccccc3F)CC2)n2cnnc2n1	·	0%[46.1 µM]	-23%	·	-0.5%	·	-1%[46.1 µM]	-2%
CC(C)OC(=O)c1ccc(S(N)(=O)=O)o1	5%	?	-10%	10%	-0.7%	6%	-1%	-10%
COc1ccc(-c2nn(-c3ccccc3)cc2C(=O)Nc2ccccc2OC)cc1	·	0%[46.1 µM]	-24%	·	-3.1%	·	8%[46.1 µM]	-3%
Cc1ccccc1CCNC(=O)C1CCC(=O)N(C2CCCCCC2)C1 (stereo not drawn)	-3%	3%	-13%	-3%	·	?	-6%	·
CC(C)NC(=O)COc1coc(CN2CCN(Cc3ccccc3)CC2)cc1=O	1%	-19%[46.1 µM]	-9%	-3%	·	-3%	9%[46.1 µM]	·
COc1ccc(CNC(=S)Nc2ccc(S(N)(=O)=O)cc2)cc1	5%	·	-4%	1%	·	1%	·	·
CCC(=O)Nc1ccc(Cl)c(NC(=O)C(C)C)c1	-6%	-1%	·	-2%	6.1%	?	14%	15%
CCCc1nnc(SCC(=O)Nc2cc(C)on2)n1CCOC	-3%	1%[46.1 µM]	-18%	2%	·	2%	-20%	·
CCCC(=O)N1CC(=O)Nc2ccc(Cl)cc2C1c1ccccc1 (stereo not drawn)	·	-1%[46.1 µM]	-12%	·	1.1%	·	?	15%
COc1cc(-c2noc(C)c2-c2ccc(N(C)C)nc2)cc(OC)c1OC	-13%	·	-16%	2%	·	-6%	·	·
COc1ccc(OC)c(C2=NOC(C(=O)Nc3cc(C)on3)C2)c1 (stereo not drawn)	0%	·	-14%	-1%	·	1%	·	·
O=c1c2c(ncn1Cc1ccccc1)nc1n2CCC1	14%	1%	-8%	1%	-0.1%	-1%	1%	4%
CCN(Cc1ccccc1)C(=O)C1CCN(CC2CC=CCC2)CC1 (stereo not drawn)	2%	?	-10%	3%	2.2%	-15%	2%	-1%
C(=N\n1cnnc1)/c1nc2ccccc2[nH]1	21%	3%	0%	-9%	-3.2%	-11%	30%	-7%
CCC(=O)N1CCc2cc(Br)c(S(=O)(=O)CCC(=O)NCCOC)cc21	·	-22%[46.1 µM]	-1%	-17%	·	·	-9%[46.1 µM]	·
CCCOC1CCCN(Cc2nc(-c3cnccn3)no2)C1 (stereo not drawn)	2%	?	12%	-9%	·	-1%	10%[46.1 µM]	·
CCOc1ccc(OCC)c(NC(=O)C2CCCN(S(=O)(=O)c3c(C)n[nH]c3C)C2)c1 (stereo not drawn)	-8%	·	-23%	5%	3.4%	-5%	·	?
CCSCCOC(=O)C1=C(C)NC(=O)NC1c1cccc(OC)c1OC (stereo not drawn)	7%	-8%	·	-5%	4.4%	5%	3%	4%
COc1ccc(CCn2c(=N)c(C(=O)NC3CCCC3)cc3c(=O)n4cccc(C)c4nc32)cc1	7%	·	-17%	?	·	-2%	·	·
O=C1CC(C(=O)Nc2ccc(F)c(Cl)c2)N=C(N2CCCCC2)N1 (stereo not drawn)	3%	?	31%[activator]	21%	5.5%	4%	15%	6%
COc1ccc(OC)c(C2C3=C(CCCC3=O)Nc3c2c(=O)n(C)c(=O)n3C)c1 (stereo not drawn)	1%	21%&21%	12%	18%	1.3%	?	0%	-2%
CCN(CC)c1ccc(NC(=O)Cn2c3ncccc3c(=O)n2-c2ccccc2)c(C)c1	·	·	4%	·	1.4%	·	22%[46.1 µM]	-3%
COC(=O)[C@H](CCSC)NC(=O)NCCc1ccccc1F	-10%	28%	37%[activator]	17%	7.0%	-1%	-2%	8%
Cc1cc(C)nc(N2CCC(C(=O)NCc3cccc(C(F)(F)F)c3)CC2)n1	7%	0%&17%	-12%	?	-0.8%	3%	6%	1%
COc1ccc(C2NC(=O)NC(C)=C2[N+](=O)[O-])cc1OC (stereo not drawn)	-2%	·	-7%	-10%	·	-2%	·	·
CCOC(=O)NC(=O)COC(=O)CNC(=O)c1ccc(OCC)c(OCC)c1	·	-4%[46.1 µM]	-5%	12%	·	-4%	22%	·
COc1ccccc1NC(=O)c1cc(C2CC2)nc2c1c(C)nn2-c1ccc(C)cc1	·	·	-3%	·	1.9%	·	-14%[46.1 µM]	-2%
CCNC(=O)n1nccc1C(C)Oc1ccccc1 (stereo not drawn)	·	-3%	27%	-1%	1.5%	5%	5%	-1%
COc1ccc(NC(=O)CN2C(=O)COc3ccc(C)cc32)cc1	14%	·	-3%	-14%	·	2%	·	·
O=C(NCCc1c[nH]c2ccccc12)C(=O)Nc1ccccc1	-2%	·	48%[activator]	-3%	·	-2%	·	·
O=C1NC(=O)C(=Cc2ccc(-c3ccc(S(=O)(=O)N4CCOCC4)cc3)o2)C(=O)N1	2%	·	?	-11%	·	-3%	·	·
COC(C[C@@H]1O[C@@H]1[C@@H](O)[C@H](C)OCc1ccccc1)OC	3%	·	-10%	1%	·	0%	·	·
O=C(CCN1C(=O)C2C3C=CC(C3)C2C1=O)N1CCN(c2ccc([N+](=O)[O-])cc2)CC1 (stereo not drawn)	·	-10%	-54%	18%	·	2%	-7%	·
CCOC(=O)CSc1nnc(-c2cccs2)n1-c1ccccc1	-13%	14%	14%	6%	8.3%	·	0%	-5%
CCc1ccc(S(=O)(=O)Nc2ccc(C)c(NS(C)(=O)=O)c2)cc1	3%	·	17%	2%	·	5%	·	·
Cc1ccc(CNS(=O)(=O)c2cc3c(cc2C)NC(=O)CO3)cc1	-1%	·	-20%&-6%	14%	-4.1%	-2%	-17%[46.1 µM]	12%
CN(C(=O)c1ccccc1)C1(C)CCS(=O)(=O)C1 (stereo not drawn)	-2%	6%	-25%	12%	6.0%	·	2%	16%
CCCC(=O)N1CCN(c2ccc(NC(=S)NC(=O)CC)cc2)CC1	-20%	4%	18%	-10%	-0.4%	1%	-19%	-15%
Nc1nccnc1C(=O)OCC(=O)C12CC3CC(CC(C3)C1)C2	·	1%[46.1 µM]	-11%	21%	·	2%	16%	·
CSc1nc2ccsc2c(=O)n1-c1cccnc1	·	15%[46.1 µM]	-2%	·	·	-1%	-9%[46.1 µM]	·
CCOC(=O)/C(C#N)=C/c1cccc(F)c1	·	-1%[14.2 µM]	-10%	-2%	·	2%	16%	·
O=[N+]([O-])c1ccccc1/C=N/n1c(C(F)(F)F)n[nH]c1=S	·	18%[46.1 µM]	8%	?	·	1%	13%	·
CN(C)c1ccc(C(=O)Nc2cccc(-c3nc4cccnc4s3)c2)cc1	·	-15%[46.1 µM]	-8%	·	-5.2%	·	?	1%
CCOc1ccc(N(CC)C(=O)CSc2n[nH]c(-c3ccccc3)n2)cc1	·	·	-16%	·	1.0%	·	?	-7%
c1ccc(-n2cnc3cc(NCc4ccco4)ccc32)cc1	2%	-2%[46.1 µM]	65%[activator]	9%	·	-2%	?	·
FC(F)(F)c1cc(-c2ccccn2)nc2cc(-c3ccccc3)nn12	3%	23%	6%	8%	·	0%	20%	·
C=CCn1c(SCC(=O)C(C)(C)C)nnc1-c1ccccn1	-13%	-3%	14%	-5%	0.0%	21%	11%	-2%
CN(C)C(CNC(C(=O)Nc1ccc(F)cc1)c1ccccc1)c1ccccc1 (stereo not drawn)	5%	?	46%[activator]	19%	·	-1%	?	·
N#Cc1nc(-c2ccccc2F)oc1N1CCN(C(=O)c2ccco2)CC1	-12%	-3%	-5%	4%	·	-8%	3%	·
Cc1cccc(C(=O)N/N=C/c2ccc[nH]2)c1	-13%	3%	22%	·	-6.4%	-1%	10%	-12%
CCc1nc(SCC(=O)Nc2ccccc2OC)n[nH]1	9%	15%[46.1 µM]	13%	-8%	·	-2%	·	·
COc1ccccc1CNC(=O)c1ccc2c(c1)OCO2	-6%	10%[46.1 µM]	8%	7%	·	-1%	27%	·
COCCNC(=O)c1noc2c1CCc1cc(OC)ccc1-2	-9%	-13%	25%	-1%	-3.6%	3%	?	0%
CCc1ccc2nc(SCC(=O)N3CCCCC3)c(C#N)cc2c1	·	·	5%	-23%	·	·	?	·
CN(C)CCC(C(=O)c1ccccc1)c1cccnc1 (stereo not drawn)	·	3%	-18%	15%	·	·	-1%	·
COc1ccc(C(=O)Nc2cccc(NC(=O)c3cccs3)c2)cc1OC	?	·	-7%	-1%	·	0%	·	·
COc1cc(C=O)ccc1OS(=O)(=O)c1ccc(NC(C)=O)cc1	-2%	?	-5%	-1%	-2.1%	7%	16%	-6%
Cc1cccc(CSC2=NCCN2C(=O)c2ccc(Br)o2)c1	-75%	·	-18%	0%	-3.5%	-3%	·	0%

Later entries:
SMILES	NS1 inh	Marburg entry inh	2A StopGo	RE007 growth inh	Cruzain inh Det	SARS PLpro yeast	LASV entry inh	Cruzain noTriton
N#Cc1sc2nccc(Nc3ccccc3)c2c1N	·	-28%[46.1 µM]	?	24%	·	·	-27%	·
COc1ccc(OC)c(/C=N/NC(=O)CCCC(=O)Nc2cccc(Br)c2)c1	-13%	0%	-11%	11%	-8.0%	-1%	-29%[14.3 µM]	11%
Cc1cccc(CSc2nc3c(c(-c4cccs4)c2C#N)CN(C)CC3)c1	22%	?	-16%	0%	-5.8%	-9%	?	-23%
Nc1ccc(S(=O)(=O)NN=Cc2ccccc2[N+](=O)[O-])cc1	·	?	9%	4%	·	·	-4%[46.1 µM]	·
CCOC(=O)c1ccc(NC(=O)CSc2cc(=O)n(CC)c3ccccc23)cc1	·	·	?	·	-0.4%	·	22%[46.1 µM]	-6%
Cc1nn(-c2ccccc2)c(-c2ccccc2)c1C(=O)O	8%	26%	-16%	-3%	7.0%	-3%	1%	-7%

Compound activity deposited in PubChem by National Center for Advancing Translational Sciences (NCATS).
